# Screening results as filed in PubChem BioAssay.
# UCH37 inh = inhibitors of human UCH37 deubiquitinase, primary screen, biochemical, Ub-AMC cleavage, fluorescence | Ubiquitin carboxyl-terminal hydrolase isozyme L5 (Homo sapiens), Q9Y5K5 | purified proteasome/UCH37 | inhibition, % (concentration not given with the values) | 330,000 compounds, 0.33% hits | AID 588478, 2011;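 active = mean of two replicates above 20%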;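 note: 0% = compound-free wells with enzyme and 100% = wells lacking proteasome; stock transfer was 100 nL into about 20 µL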
# Target sequence (Q9Y5K5 whole entry, looked up): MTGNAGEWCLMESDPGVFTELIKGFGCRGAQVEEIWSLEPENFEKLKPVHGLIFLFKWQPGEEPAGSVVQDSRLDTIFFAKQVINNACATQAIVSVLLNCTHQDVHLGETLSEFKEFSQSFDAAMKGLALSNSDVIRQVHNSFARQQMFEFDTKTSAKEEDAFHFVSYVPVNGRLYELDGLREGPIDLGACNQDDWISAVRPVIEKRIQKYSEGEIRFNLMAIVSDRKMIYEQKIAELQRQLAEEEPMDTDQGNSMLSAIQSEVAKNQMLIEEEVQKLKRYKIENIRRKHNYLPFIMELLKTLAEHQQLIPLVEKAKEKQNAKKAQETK
#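 System: Proteasome-associated human UCH37 deubiquitinase; Input: 0.15 nM proteasome in added enzyme buffer; Also added: Ub-AMC substrate from 1 µM stock; Incubation: 30 min compound-proteasome preincubation then 25 min substrate reaction, room temperature; Detection: fluorescence, ex 355 nm, em 460 nm; Read-out: % inhibition of Ub-AMC cleavage fluorescence; Benchmarks: no-proteasome and no-compound wells.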
# LANA-H2B inh = blockers of LANA interaction with H2A/H2B – biochemical, FP readout, HTS, primary screen; Protein LANA1 (Human herpesvirus 8 type P (isolate GK18)), Q9QR71; cell-free LANA-H2A/H2B peptide, fluorescence polarization; inhibition, % (concentration not given with the values); 320,000 compounds, 0.6% hits; AID 2629, 2010; in the data active = inhibition mostly above about 10%, no sharp cut-off; inactive = mostly below about 6.7%;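 note: stock transfer was 7.5 nL into about 10 µL; 0% = median of vehicle wells and 100% = median of positive control wells; one replicate is shown; the record names a cut of 25% in any replicate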
# Beta2AR agonist = beta2AR agonists driving receptor internalization, primary screen, cell-based, FAP fluorogen, flow cytometry | Beta-2 adrenergic receptor (Homo sapiens), P07550 | Am2.2-beta2AR cells; reference of the scale not given here | response, % (concentration not given with the values) | 340,000 compounds, 0.43% hits | AID 504454, 2011;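 active = response above a set limit, near 3 SD of response in nonfluorescent compounds, cut at about 42% in these data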;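 note: stock transfer was 100 nL into about 11 µL; a reference agonist was the positive control; negative values mostly stem from fluorescent compounds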
# Target sequence (P07550 whole entry, looked up): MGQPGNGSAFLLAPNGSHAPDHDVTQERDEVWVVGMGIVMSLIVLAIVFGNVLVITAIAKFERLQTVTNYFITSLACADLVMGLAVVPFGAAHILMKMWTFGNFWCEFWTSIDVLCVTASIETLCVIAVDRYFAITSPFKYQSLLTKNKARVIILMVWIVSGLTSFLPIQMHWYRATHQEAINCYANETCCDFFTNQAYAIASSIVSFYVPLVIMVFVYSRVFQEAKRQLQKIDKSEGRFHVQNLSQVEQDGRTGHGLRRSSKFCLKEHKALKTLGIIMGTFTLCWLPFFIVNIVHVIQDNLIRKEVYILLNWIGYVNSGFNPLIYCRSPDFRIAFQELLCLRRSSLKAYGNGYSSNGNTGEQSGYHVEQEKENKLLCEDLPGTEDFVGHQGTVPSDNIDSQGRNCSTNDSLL
# FGF22 binding = binders of human FGF22 protein, primary screen, FGF22 synaptogenesis inhibitor project, biophysical, thermal shift, single point; Fibroblast growth factor 22 (Homo sapiens), Q9HCT0; recombinant FGF22 thermal shift, SYPRO orange fluorescence; percent of sucrose octasulfate shift, DMSO zero; calls only at 9.99 µM; 340,000 compounds, 1.5% hits; AID 651658, 2012;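 active = melting point raised past a set limit in the mean and every replicate; inconclusive = no clear call; three in four hits are not shown here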
# E coli growth = E. coli growth inhibition, primary screen, OD600; 330,000 compounds, 0.21% hits; OD600 absorbance (test concentration not listed); Escherichia coli growth, 23 h; stronger effect = lower value;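 active = OD600 absorbance below the run mean of sample wells minus 3.6 SD, in any replicate, cut at about 0.56 in these data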;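 note: stock transfer was 300 nL into about 60 µL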
# HNF4A DNA FP = change in binding of human HNF4A to DNA, primary screen, biochemical, fluorescence polarization, FITC-DNA. AID 1224865, 2016. activity change, % at 10 µM. 360,000 compounds, 0.3% hits. 1 h. Hepatocyte nuclear factor 4-alpha (Homo sapiens), P41235; in the data active = activity change above about 30%, passing the limit was not always enough;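 note: controls were the assay level and a saturating level of protein; the project sought stronger binding though the title names inhibitors; some compounds called inactive have numbers as strong as hits; positive values seem to mean higher polarization but the record does not say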
# ALR H2O2 inh = inhibitors of human ALR sulfhydryl oxidase, primary screen, biochemical, H2O2 detection, HRP-luminol luminescence, single point | purified ALR, DTT oxidation | inhibition, % (no concentration beside the values) | 290,000 compounds, 3.8% hits | AID 485317, 2010;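 active = mean and each replicate at 75% or more; inconclusive = only one of the two met; inactive = neither met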;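 note: stock transfer was 7.5 nL into about 7.5 µL; 0% = neutral wells and 100% = wells with inactivated enzyme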
# Target sequence (P55789 whole entry, looked up): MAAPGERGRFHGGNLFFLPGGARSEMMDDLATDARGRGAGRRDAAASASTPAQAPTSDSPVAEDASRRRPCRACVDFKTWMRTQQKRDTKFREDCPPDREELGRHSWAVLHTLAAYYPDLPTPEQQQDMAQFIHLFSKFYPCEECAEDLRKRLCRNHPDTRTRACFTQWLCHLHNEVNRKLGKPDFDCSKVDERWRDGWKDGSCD
# An asterisk follows results filed as active; i = inactive; ? = inconclusive; / = no result given.
smiles	E coli growth	Beta2AR agonist	ALR H2O2 inh	LANA-H2B inh	UCH37 inh	FGF22 binding	HNF4A DNA FP
Cn1nc(C(=O)NCc2cccs2)c2ccccc2c1=O	0.71	2	-16	4.8	4.4	i	4.2
COc1ccc(CCNC(=O)C(=O)NCC2CCCO2)cc1 (centres undefined)	0.72	3	-1	1.6	-0.1	/	0.9
CCOC(=O)c1c(C)[nH]c(C(=O)OCC(=O)Nc2ccc(Cl)cn2)c1C	0.7	-3	-2	/	-0.8	i	1.7
CCOc1c(Cl)cc(C(=O)Nc2ccccc2C(=O)O)cc1Cl	0.67	3	8	-2.7	2.2	/	-1.7
CC(C)Cn1c(O)c(N=NC(=O)c2cccc(S(=O)(=O)N3CCCCC3)c2)c2ccccc21	0.77	41	-1	2.8	2.4	/	2.5
CCCCN1C=CC(=C2N=c3cccc([N+](=O)[O-])c3=N2)C=C1	0.64	4	-1	-3.5	11	i	0.0
CCN1CCN(C(=O)C2CCN(S(=O)(=O)N3CCC4(CC3)OCCO4)CC2)CC1	0.68	2	1	2.5	4.6	i	1.5
O=C(CNC(=O)COc1ccccc1)NCc1cccnc1	0.7	-3	-31	-1.9	-1.8	i	-0.6
CCCCCCCn1c(NC(=O)CC)nc2ccccc21	/	-11	-4	-0.2	/	i	2.7
CC1CCCCC1NC(=O)C1CCN(S(=O)(=O)N2CCC3(CC2)OCCO3)CC1 (centres undefined)	0.68	4	-11	6.6	-2.4	/	1.9
CC1CCCN(C(=O)C2CC(=O)N(c3ccc(Cl)cc3)C2)C1 (centres undefined)	0.7	5	0	1.3	2.6	i	-0.2
CCN(CC(=O)NCc1ccc(F)cc1)C(=O)CN1CCN(c2ccc(OC)cc2)CC1	0.7	15	/	0.3	4.2	i	-1.6
Cc1ccn2c(=O)nc(SCC(=O)OCc3ccccc3)nc2c1	0.68	4	?	-1.1	-2.2	i	-2.2
CCOC(=O)N1CCC(N(CCOC)C(=O)Nc2ccc(Cl)c(Cl)c2)CC1	0.7	-11	-4	3.5	2.5	/	-0.6
CC1(C)c2[nH]c3ccccc3c2C[C@H]2C(=O)N(CCCO)CC(=O)N21	0.68	-3	9	-2.4	1.8	i	-0.7
Cc1ccc(-c2nnc(SCC(=O)N/N=C/c3c(C)nn(-c4ccccc4)c3C)n2-c2ccccc2)cc1	/	-17	/	2.2	/	i	-3.2
CCOC(=O)N1CCC(N2CCN(Cc3ccc(C)o3)C(CCO)C2)CC1 (centres undefined)	0.66	1	10	-0.1	-2.1	/	-0.8
CN(C)CCN(C(=O)c1ccc2ccccc2c1)c1nc2ccc(Br)cc2s1	0.69	-7	0	1.6	2.4	i	0.5
CCc1ccc(NC(=O)Cn2nnc(C(=O)NCc3cccs3)c2N)cc1	0.71	-14	-23	-6.3	3.9	i	-0.2
CC(=O)Nc1ccc(NC(=O)C(C)OC(=O)C23CC4CC(CC(Cl)(C4)C2)C3)cc1 (centres undefined)	0.63	-4	-8	8.3	2.2	i	2.9
COc1ccc(C2CCCN2C(=O)Nc2ccccc2)cc1OC (centres undefined)	0.71	1	1	-4.4	6.6	i	1.8
Cc1nc2c(=O)oc3ccccc3c2n1-c1ccccc1	0.69	-5	1	-1.8	2.5	/	-1.1
CCN(Cc1ccccc1)C(c1ccccn1)c1nnnn1C1CCCCC1 (centres undefined)	0.67	1	-10	-1.2	5.8	/	1.1
Cc1cccc(NC(=O)c2ccc(OCc3c(C)noc3C)cc2)n1	0.67	3	3	-2.4	1.6	i	-1.4
O=C(Nc1ccc(Cl)cc1F)C1CC(=O)N(Cc2ccco2)C1 (centres undefined)	0.57	-7	/	/	1.8	i	1.9
CSc1ccccc1NC(=O)COC(=O)CSc1ccc(C)cc1	0.7	6	4	-3.1	2.6	i	3.5
CNc1nnc(-c2cc3cc(Cl)ccc3oc2=O)s1	0.74	-5	-22	-2.2	-10.0	/	1.9
Cc1ccc(-n2nnnc2-c2ccco2)cc1	0.67	-3	-7	-0.4	4.2	/	-2.9
C#CCNC(=O)C1=C[C@H](C2CCCCC2)C[C@H](OCCCCO)O1	/	-5	-5	3.9	-0.8	i	-2.3
Cc1ccc(C(=O)N/C(=C/c2ccco2)C(=O)N2CCC(C)CC2)cc1	0.68	-1	25	5.5	2.7	i	6.0
CCCCCCC(=O)N(O)C1CC(=O)N(c2ccc(Cl)cc2)C1=O (centres undefined)	0.66	8	2	-1.2	-2.1	i	1.1
COc1ccccc1NS(=O)(=O)c1cc(NC(=O)c2ccco2)ccc1N1CCOCC1	0.73	-9	/	1.1	2.9	i	-3.5
COc1ccc(S(=O)(=O)c2c(O)c3ccc(C(=O)Nc4ccc(F)cc4)cc3[nH]c2=O)cc1	0.64	39	18	4.5	7.7	i	1.3
CN(CC(=O)Nc1ccc(F)cc1)C(=O)Cc1ccsc1	0.71	8	-56	1.8	-2.2	i	1.0
Cc1ccc(C)c(NNC(=O)C(=O)NNc2cc(C)ccc2C)c1	0.68	-2	2	-8.1	5.9	i	8.4
Cc1nc(N2CCOCC2)c2c(C)c(C(=O)Nc3ccc(F)cc3Cl)sc2n1	0.7	-7	/	-2.7	-7.0	i	-0.9
COc1cccc(Nc2ccc(-n3ccnc3)nn2)c1	0.66	4	-15	2.5	3.6	i	5.7
C=CCOc1ccc(/C=C2\C(=N)N3N=C(S(=O)(=O)CC)SC3=NC2=O)cc1OC	0.72	5	17	-0.9	21*	i	7.3
COc1cc(OC)c(C2=Nc3ccc(Br)cc3C(c3ccccc3)N2CC(=O)NN)cc1OC (centres undefined)	0.69	2	0	-3.8	9.0	i	1.7
N=c1oc2ccccc2cc1C(=O)NCc1ccccc1	/	-8	24	2.8	/	i	3.2
Nn1c(SCC(=O)Nc2nnc(-c3ccccc3)o2)nnc1C1CC1	0.7	2	4	1.4	1.5	i	0.5
CCNC(=O)COC(=O)c1cc(-c2ccccc2)nn1-c1ccccc1	0.69	5	-6	1.7	3.9	i	-5.4
O=C(NCc1ccccc1)c1cnc2n(c1=O)CCS2	0.72	-6	-4	1.5	1.1	/	0.8
CC(C)CN1C(=O)C(=O)N(CC(=O)N2c3ccccc3NC(=O)CC2C)C1=O (centres undefined)	0.69	5	/	/	2.1	i	-0.9
CCOC(=O)N1CCC(n2c(SCC(=O)NCCC3=CCCCC3)nc3ccccc3c2=O)CC1	0.72	-21	0	-3.9	24*	/	-1.7
O=C(O)c1ccccc1C=NNc1ccccn1	/	-4	/	/	/	i	3.7
O=C(C1CCC1)N1CCc2cc(S(=O)(=O)NCc3ccccn3)ccc21	0.66	-4	/	-1.0	3.0	/	-4.6
Cc1cc(OC(=O)c2ccc(F)cc2)c([N+](=O)[O-])c(=O)[nH]1	0.73	5	5	5.2	5.1	i	1.0
Cc1ccc(NC(=O)CN2CCCC2c2cccs2)cc1S(=O)(=O)N1CCCCC1 (centres undefined)	0.65	5	-3	/	1.1	i	0.3
CSc1ccc(/C=N/NC(=O)CN2CCN(Cc3ccccc3)CC2)cc1	/	-5	-7	0.6	/	i	-3.0
O=C(O)c1ccc(Nc2nc(-c3cccnc3)cs2)cc1	0.63	0	-50	-1.8	5.0	i	0.0
Cc1ccc(/C=C/C(=O)OCC(=O)N(CC(C)C)c2c(N)n(Cc3ccccc3)c(=O)[nH]c2=O)o1	/	6	-1	-2.1	/	i	-6.8
Cn1c(N2CCCC2)nc2c1c(=O)n(Cc1ccc(F)cc1)c(=O)n2C	0.71	-16	/	-2.8	1.8	/	1.6
CCC(C)NC(=O)c1ccccc1NC(=O)C(C)N(c1ccccc1)S(C)(=O)=O (centres undefined)	0.64	9	-3	-4.8	-0.1	i	-0.4
O=C(CN1CCC(Cc2ccccc2)CC1)NCCc1ccc(F)cc1	0.64	2	-3	1.9	1.4	i	-6.2
O=C1CSC(c2cn(-c3ccccc3)nc2-c2cccs2)N1Cc1ccccc1 (centres undefined)	0.78	/	4	-3.7	-1.2	/	/
Cc1c(NC(=O)c2c(N)sc3c2CCCC3)c(=O)n(-c2ccccc2)n1C	0.73	6	-7	-1.2	1.8	i	5.2
C#CC(=O)CC1(CN(Cc2ccccc2)C(=O)OC(C)(C)C)CCCCC1	/	1	/	/	/	i	13
Cc1nnc2sc(SCc3ccccc3)nn2c1=O	0.68	/	20	-2.5	6.3	/	/
Cc1cccc(N2CCN(S(=O)(=O)c3ccc4c(c3)CCN4C(=O)CCC(=O)O)CC2C)c1 (centres undefined)	0.71	-6	43	-4.2	6.0	i	1.1

# The results go on.
smiles	E coli growth	Beta2AR agonist	ALR H2O2 inh	LANA-H2B inh	UCH37 inh	FGF22 binding	HNF4A DNA FP
N#CC1(Cc2ccccc2)c2ccccc2C=CN1C(=O)c1ccccc1 (centres undefined)	0.72	2	-4	-8.0	1.7	/	-1.1
CCOc1ccc(-c2cc(N)n(S(=O)(=O)c3ccc(OC)cc3)n2)cc1	0.72	-6	-3	0.8	4.2	i	2.3
C/C(=N/NC(=O)C1CC1(c1ccccc1)c1ccccc1)c1ccco1 (centres undefined)	/	-4	-9	0.9	/	i	-4.5
COc1ccc(CN(C(=O)/C=C/C(=O)c2ccc(OC)cc2O)C(C(=O)NC2CCCCC2)c2ccncc2)cc1 (centres undefined)	0.66	1	-3	3.2	8.0	i	3.1
COc1ccc(C(=O)NNC2=C(C(=O)C(F)(F)F)CCC2)cc1	0.66	1	42	-1.6	3.2	i	0.3
COc1ccc(S(=O)(=O)N2CCCC(C(=O)NCC3CCCO3)C2)cc1OC (centres undefined)	0.7	-1	-1	4.4	5.3	i	2.9
COc1ccc(NC(=O)CSCc2ccc([N+](=O)[O-])cc2)cc1OC	0.67	-5	0	5.4	1.3	i	2.1
COc1ccc(-c2nc(CS(=O)(=O)CC(=O)NCCCN3CCOCC3)c(C)o2)cc1	0.68	0	-1	2.0	1.5	i	-7.5
CCC(c1nnnn1CCOC)N1CCN(Cc2ccccc2)CC1 (centres undefined)	0.69	5	5	-2.7	0.4	/	-0.4
CCN(C(=O)CSc1nnc(-c2cccc(Cl)c2)n1N)c1c(N)n(Cc2ccccc2)c(=O)[nH]c1=O	0.65	-12	/	/	0.9	i	-0.3
COc1cc2c(C(=O)O)c(C)n(-c3ccccc3)c2c2ccccc12	0.72	-1	/	-1.1	-20	i	-1.9
CCOc1ccc2ncc(C(=O)c3ccc(OC)cc3)c(N3CCN(CC)CC3)c2c1	0.72	-9	1	-5.3	7.3	/	4.4
CCOC(=O)N1CCC(NC(=O)C2=CCN(S(=O)(=O)c3ccccc3)CC2)CC1	0.72	-3	-2	5.9	3.1	i	3.3
Cc1cc(C)cc(N(C(=O)c2csnn2)C(C(=O)NC2CCCC2)c2cccnc2)c1 (centres undefined)	0.7	4	-2	3.3	1.1	i	-0.3
CN(CC(=O)N(CCO)Cc1ccccc1)S(=O)(=O)c1ccc2c(c1)c(=O)n(C)c(=O)n2C	0.65	-1	-2	-2.9	-0.9	i	0.2

# The list is partial; the hit share may differ from the screen's.
